Source: PubChem BioAssay
hNpr1 antagonist: Natriuretic polypeptide receptor (hNpr1) antagonism - Primary qHTS. Atrial natriuretic peptide receptor 1 (Homo sapiens), P16066. HEK293 hNpr1 GloSensor cGMP, ANP-stimulated luminescence. Potency, µM (top dose mostly 46.3 µM), for inactives: at the top dose activity change, negative = inhibition, hits mostly inhibitors. hit rate 1.6% among 76,000. AID 1347048, 2019; active = well fitted inhibition curve with a large enough effect; inconclusive = small, poorly fitted or top-dose-only effect; inactive = no such curve, though single readings can be large or run the other way;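 further: nearly all actives have a fitted effect of over 60% in size; nearly all hits also lower the signal before the agonist is added; a reference antagonist and vehicle were the controls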
Target sequence (P16066 whole entry, looked up): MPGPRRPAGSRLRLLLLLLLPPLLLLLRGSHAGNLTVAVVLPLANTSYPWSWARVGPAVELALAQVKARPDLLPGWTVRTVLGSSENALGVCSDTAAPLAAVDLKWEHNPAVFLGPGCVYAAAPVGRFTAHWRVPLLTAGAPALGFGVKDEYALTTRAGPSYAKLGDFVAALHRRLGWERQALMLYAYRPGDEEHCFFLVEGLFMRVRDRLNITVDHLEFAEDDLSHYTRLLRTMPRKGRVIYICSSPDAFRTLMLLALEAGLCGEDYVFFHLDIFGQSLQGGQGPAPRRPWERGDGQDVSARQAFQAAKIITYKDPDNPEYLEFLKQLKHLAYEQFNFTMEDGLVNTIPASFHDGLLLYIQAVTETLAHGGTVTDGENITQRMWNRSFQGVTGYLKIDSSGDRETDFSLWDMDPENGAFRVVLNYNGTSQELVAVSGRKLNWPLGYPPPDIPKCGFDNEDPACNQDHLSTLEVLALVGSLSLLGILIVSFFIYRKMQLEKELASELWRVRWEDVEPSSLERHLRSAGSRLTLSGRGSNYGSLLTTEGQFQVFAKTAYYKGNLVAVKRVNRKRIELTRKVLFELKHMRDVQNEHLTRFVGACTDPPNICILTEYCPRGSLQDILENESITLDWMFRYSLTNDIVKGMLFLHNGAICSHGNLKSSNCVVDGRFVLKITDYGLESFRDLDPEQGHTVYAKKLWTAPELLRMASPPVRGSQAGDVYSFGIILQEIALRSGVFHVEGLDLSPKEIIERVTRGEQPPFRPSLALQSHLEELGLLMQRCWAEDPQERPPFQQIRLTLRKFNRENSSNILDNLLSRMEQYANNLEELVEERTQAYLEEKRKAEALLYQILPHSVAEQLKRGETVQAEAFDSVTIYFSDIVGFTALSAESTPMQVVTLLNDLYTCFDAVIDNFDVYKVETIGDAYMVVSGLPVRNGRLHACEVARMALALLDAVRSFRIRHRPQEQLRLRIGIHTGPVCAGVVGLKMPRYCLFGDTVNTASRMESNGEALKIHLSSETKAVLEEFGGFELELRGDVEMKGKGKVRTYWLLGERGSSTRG
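Compound pre-incubated 30 min at room temperature on GloSensor-loaded HEK293 cells stably carrying hNpr1 and the pGS-40F cGMP biosensor. Stimulation uses hNppA at 0.1 nM final; luminescence is taken at baseline and 20 min post-agonist.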
* = called active by the depositor; [ ] = dose if it differs, or a comment. On the % scale 0 is the no-effect control and ±100 the full control effect; potency means the concentration at half of the fitted maximal effect.

`COc1ccc(C(=O)NC2CCN(c3cc(-c4ccccc4)[nH]n3)CC2)c(C)c1` gave hNpr1 antagonist -11%.
For COCc1noc(-c2ccc(NC[C@H]3CCc4ccccc4O3)nc2)n1 the results were hNpr1 antagonist 0%.
O=C(NCCCn1nccc1C1CC1)C1NCCc2[nH]cnc21 (configuration not stated) was read as hNpr1 antagonist 3%.
`Cc1cnc(C2CC2)n1CC1CCNCC1` gave hNpr1 antagonist -1%.
For CN1C(=O)C2(CCN(C(=O)Cc3cccc(F)c3)C2)c2ccccc21 (configuration not stated) the results were hNpr1 antagonist 2%.
NC(=O)c1ccc(OC2CCN(C(=O)CC3CCCCC3)C2)nc1 (configuration not stated) was read as hNpr1 antagonist -2%.
Screening COCCn1c(C)cc(C(=O)N2CC(COC)C3(CCNCC3)C2)c1C (configuration not stated) returned hNpr1 antagonist 4%.
Screening CN(C)CCCN(C)c1nccc(C2(c3ccccc3Cl)CCNCC2)n1 returned hNpr1 antagonist 2%.
`CCOc1ccc(NC(=O)N2CCC3(CC2)SCC(=O)N3Cc2ccco2)cc1` gave hNpr1 antagonist -7%.
For Cc1ccc(N2CCC(NC(=O)Cc3cccs3)C2=O)cc1C (configuration not stated) the results were hNpr1 antagonist 0%.
Screening COc1ccc(C(=O)N[C@H]2C[C@H]3C(=O)NC[C@@H](CCC(=O)N4CCN(C)CC4)N3C2)cc1 returned hNpr1 antagonist -1%.
Screening Cn1cnnc1-c1nn(C)c2c1CN(C(=O)c1cc3ccccc3[nH]1)CC2 returned hNpr1 antagonist 1%.
For Cc1ccc(C2=NC3(CCN(C(=O)c4ccncc4)CC3)ON2)cc1 the results were hNpr1 antagonist 2%.
For COc1ccc(C(=O)N2CCC(c3n[nH]c(=O)n3Cc3ccc(F)cc3)CC2)cc1F the results were hNpr1 antagonist -1%.
Screening CN(Cc1ccccc1)C(=O)C1(C)CCCc2cnc(Nc3cccnc3)nc21 (configuration not stated) returned hNpr1 antagonist -22%[70.6 µM].
Screening CN1CCC(CNC(=O)c2cc(-c3ccc(F)cc3)cc3ncn(C)c23)CC1=O (configuration not stated) returned hNpr1 antagonist 4%[70.6 µM].
`CC(=O)NCC(=O)NCc1nnc2ccc(-c3ccc(C)c(C)c3)nn12` gave hNpr1 antagonist 7%.
COc1cccc(CN2C[C@@H]3C(C(=O)O)[C@@H]3C2)c1OCCn1ccnc1 (some centres not stated) was read as hNpr1 antagonist -1%.
`CCCn1cc(C(=O)N2C[C@H](c3ccccc3)[C@@H](N)C2)c(C)n1` gave hNpr1 antagonist -2%.
`CC(=O)Nc1ccc(CC(=O)N2CCc3c(nc4cc(-c5ccccc5)[nH]n4c3=O)C2)cc1` gave hNpr1 antagonist -1%.
Cc1noc(-c2cccc(OC3CN(C(=O)c4cccn4C)C3)c2)n1 was read as hNpr1 antagonist -2%.
For C[C@@]1(O)CCN(C(=O)C2(c3ccccc3)CC2)C[C@@H]1Cc1ccccc1 the results were hNpr1 antagonist -2%.
CC1(O)CCCN(c2ccc(-c3nc(CCCc4ccccc4)no3)cn2)C1 (configuration not stated) was read as hNpr1 antagonist inconclusive.
Cc1noc(C)c1S(=O)(=O)N1CCN(C(=O)N2CC3CC(C2)[C@H]2CCCC(=O)N2C3)CC1 (some centres not stated) was read as hNpr1 antagonist 0%.
CCOCc1nc(C2CCCN(C(=O)NCc3ccc(F)cc3)C2)no1 (configuration not stated) was read as hNpr1 antagonist inconclusive.
For CNC(=O)CCNc1c(-c2cccc(F)c2)nc2cnccn12 the results were hNpr1 antagonist 6%.
Screening N#CCCN1CCN(C(=O)c2cn3ccnc(-c4ccc(F)cc4)c3n2)CC1 returned hNpr1 antagonist 2%.
COc1cccc(S(=O)(=O)N2CCC3(CC2)C(=O)NN=C3c2ccccn2)c1 was read as hNpr1 antagonist 25%.
Cc1ccc2oc(=O)n(CCC(=O)NC3CCCN(c4ncccn4)C3)c2c1 (configuration not stated) was read as hNpr1 antagonist 6%.
`CCC1(N2CCN(S(=O)(=O)c3ccc(F)c(C)c3)CC2)CCN(C(=O)C(C)C)C1` (configuration not stated) gave hNpr1 antagonist -2%.
O=C(Cc1cccs1)N1CCOc2ccc(CN3CCCCC3)cc2C1 was read as hNpr1 antagonist -16%.
Screening O=C(NC1CCCCC1)C1CN(C(=O)c2cccc(C(F)(F)F)c2)CC12CCOCC2 (configuration not stated) returned hNpr1 antagonist 6%.
CCOc1ccc(CC(=O)N2C[C@@H](CO)[C@H](c3nc(C)no3)C2)cc1 was read as hNpr1 antagonist -2%.
Screening CN(C)c1nc2c(c(N3C[C@@H](CN4CCCC4)[C@@H](CO)C3)n1)CCCC2 returned hNpr1 antagonist -5%.
CN1C[C@@H](NC(=O)c2cccnc2)C[C@H]1c1nc(-c2cnccn2)no1 was read as hNpr1 antagonist 9%[70.6 µM].
`O=c1n(-c2ccc([N+](=O)[O-])cc2)nc2n1CCN(Cc1ccc(OC(F)(F)F)cc1)C2` gave hNpr1 antagonist 18µM*.
`CCN(CC)Cc1ccc2c(c1)CN(C(=O)Cc1c[nH]c3ccccc13)CCO2` gave hNpr1 antagonist -1%.
Screening CC(C)CCN1C[C@@H]2[C@H](C1)N(Cc1ccccc1F)C(=O)C(C)(C)[S+]2(=O)[O-] returned hNpr1 antagonist 4%[70.6 µM].
O=C1N(Cc2ccccc2)c2ccccc2C12CCN([S+](=O)([O-])c1cccc(C(F)(F)F)c1)C2 (configuration not stated) was read as hNpr1 antagonist 2%.
For NC(=O)CCC[C@H]1NC[C@@H]2C[C@H]1CN(Cc1ccccc1)C2 the results were hNpr1 antagonist -14%.

6 compounds picked at random from the list so far:
Screening CN(C)c1nc2c(c(N3C[C@@H](CN4CCCC4)[C@@H](CO)C3)n1)CCCC2 returned hNpr1 antagonist -5%.
CCOCc1nc(C2CCCN(C(=O)NCc3ccc(F)cc3)C2)no1 (configuration not stated) was read as hNpr1 antagonist inconclusive.
Cc1noc(C)c1S(=O)(=O)N1CCN(C(=O)N2CC3CC(C2)[C@H]2CCCC(=O)N2C3)CC1 (some centres not stated) was read as hNpr1 antagonist 0%.
Screening CC(C)CCN1C[C@@H]2[C@H](C1)N(Cc1ccccc1F)C(=O)C(C)(C)[S+]2(=O)[O-] returned hNpr1 antagonist 4%[70.6 µM].
For NC(=O)CCC[C@H]1NC[C@@H]2C[C@H]1CN(Cc1ccccc1)C2 the results were hNpr1 antagonist -14%.
Screening N#CCCN1CCN(C(=O)c2cn3ccnc(-c4ccc(F)cc4)c3n2)CC1 returned hNpr1 antagonist 2%.

Continuation:
For CCC(CC)NC(=O)C1(CCO)CCN(c2ncccn2)C1 (configuration not stated) the results were hNpr1 antagonist 1%.
For NC1CCN(Cc2ccc(C(=O)NCc3ccc(S(N)(=O)=O)cc3)c(=O)[nH]2)C1 (configuration not stated) the results were hNpr1 antagonist -1%.
Screening COCc1nc(-c2ccc(OC3CN(C(=O)c4ccc(OC)cc4)C3)cc2)no1 returned hNpr1 antagonist 1.4µM*.
Cc1ccccc1NC(=O)N1CCC2(CCCN(C3CCOCC3)C2=O)C1 (configuration not stated) was read as hNpr1 antagonist 3%.
For COCCOc1ncccc1-c1noc([C@@H]2CCCN2CC(C)(C)C)n1 the results were hNpr1 antagonist 4%[70.6 µM].
Screening Cc1ccc(CNC(=O)CCc2ccnc(N3CCCC3)c2)cc1 returned hNpr1 antagonist 2%.
Screening COCCOc1cc(=O)n2c(c1C(=O)Nc1cccc(OC)c1)CCOCC2 returned hNpr1 antagonist 0%.
For COc1ccc(CN2CCCC(COc3ccccc3C(=O)NC3CC3)C2)c(OC)c1 (configuration not stated) the results were hNpr1 antagonist -1%.
For COCc1cc(C[C@@H]2CC[C@H](O)[C@@H](CNC(=O)NC3CCCCC3)O2)no1 the results were hNpr1 antagonist 2%[70.6 µM].
`C[S+](=O)([O-])N1CCN(c2nc3ncccc3o2)CC1` gave hNpr1 antagonist 3%[70.6 µM].
Cc1nonc1C1CCCN1c1ccc(-c2nc(COc3ccccc3)no2)cn1 (configuration not stated) was read as hNpr1 antagonist -16%.
For CCOc1ccccc1C(=O)N1CCC(n2cc(-c3nc(-c4ccccc4)no3)nn2)CC1 the results were hNpr1 antagonist inconclusive.
For CC1=C[C@@H](CNC(=O)C(C)(C)C)[C@H](C(C)C)C[C@H]1Cc1nnc(-c2ccncc2)o1 the results were hNpr1 antagonist -29%[70.6 µM].
`COc1cccc(S(=O)(=O)N2CCC(Oc3ccc(C(N)=O)cn3)CC2)c1` gave hNpr1 antagonist -23%.
`CCn1nccc1C(=O)N1C[C@@H](Oc2ccccc2)C[C@H]1C(=O)NCCOC` gave hNpr1 antagonist 0%.
Screening COc1ccccc1C(=O)NCC1Cn2cccc2C(=O)N1Cc1ccccc1 (configuration not stated) returned hNpr1 antagonist -27%.
`COc1ccc([C@@H]2CN(Cc3ccc(C#N)cc3)C[C@H]2N(C)C)cc1` gave hNpr1 antagonist 0%.
`COc1ccccc1N1CCN(CC[C@@H]2CC[C@H](O)[C@@H](C(=O)Nc3ccccc3)O2)CC1` gave hNpr1 antagonist 6%.
Screening NC(=O)Cc1c[nH]c2ncc(-c3cccc(F)c3)cc12 returned hNpr1 antagonist -2%[70.6 µM].
Screening Cc1ccc(-c2cc3c(=O)n(CCNC(=O)Cc4ccccc4Cl)ccn3n2)c(C)c1 returned hNpr1 antagonist -25%.

Reprinted from the part before: five entries, then new ones.
Screening COc1ccccc1C(=O)NCC1Cn2cccc2C(=O)N1Cc1ccccc1 (configuration not stated) returned hNpr1 antagonist -27%.
`COc1ccc([C@@H]2CN(Cc3ccc(C#N)cc3)C[C@H]2N(C)C)cc1` gave hNpr1 antagonist 0%.
`COc1ccccc1N1CCN(CC[C@@H]2CC[C@H](O)[C@@H](C(=O)Nc3ccccc3)O2)CC1` gave hNpr1 antagonist 6%.
Screening NC(=O)Cc1c[nH]c2ncc(-c3cccc(F)c3)cc12 returned hNpr1 antagonist -2%[70.6 µM].
Screening Cc1ccc(-c2cc3c(=O)n(CCNC(=O)Cc4ccccc4Cl)ccn3n2)c(C)c1 returned hNpr1 antagonist -25%.
Screening CCC(=O)Nc1ccc(C2(C(=O)N3CCCCCC3)CCC2)cc1 returned hNpr1 antagonist -2%.
Screening COCCN(C)C[C@@H]1CN(C(=O)c2ccc(C(C)=O)s2)C[C@@H]1CO returned hNpr1 antagonist 1%.
Screening COCCNC(=O)[C@H]1C[C@H](Oc2ccccc2)CN1C(=O)Nc1cccc(F)c1 returned hNpr1 antagonist 1%.
Cc1ccc(NC(=O)N2CCOCCNC(=O)[C@H]3CCCC[C@H]32)cc1C was read as hNpr1 antagonist -3%.
Screening O=C(C1CCCCC1)N1CC[C@](O)(c2ccccc2)[C@H](N2CCCC2)C1 returned hNpr1 antagonist -6%.
N#Cc1cccc(CN2CCCN(S(=O)(=O)c3ccccc3)CCC(=O)NCC2)c1 was read as hNpr1 antagonist -1%.
For CCN1c2cc(C(=O)NCc3ccc(Br)cc3)ccc2C(=O)N2CCCCC21 (configuration not stated) the results were hNpr1 antagonist -15%.
CCOCCOC1CCN(C(=O)Nc2ccc(OC)cc2)CC1 was read as hNpr1 antagonist -1%.
For Cn1cc(-c2cccc(Cl)c2)c2nc(CO)cn2c1=O the results were hNpr1 antagonist 1%[70.6 µM].
For Cc1ccc(Nc2ncncc2-c2nc(-c3ccccc3)no2)cc1F the results were hNpr1 antagonist -4%.
Screening COCc1nc(C2CCCN(C(=O)CCc3ccccc3)C2)no1 (configuration not stated) returned hNpr1 antagonist 6%.
For COc1ccc(CC(=O)N2CCC(Cc3nc(-c4ccc(F)cc4)no3)CC2)cc1OC the results were hNpr1 antagonist 7.1µM*.
Screening CO[C@H]1C(=O)N(C2CCN(C(=O)CCc3c[nH]c4ccccc34)CC2)[C@H]1c1ccncc1 returned hNpr1 antagonist -1%.
Screening COCCOc1cc(=O)n2c(c1C(=O)NC1CCC1)CCOCC2 returned hNpr1 antagonist 0%.
Screening CC(C)Cn1nc2n(c1=O)CCN(S(=O)(=O)Cc1ccccc1)CC2 returned hNpr1 antagonist 2%.
For O=C([C@H]1C[C@H](Oc2cccnc2)CN1C(=O)Nc1cccc(F)c1)N1CCOCC1 the results were hNpr1 antagonist -6%.
COc1cc(CN(C)C(=O)c2c(C)noc2-c2ccc(C(C)(C)C)cc2)cc(OC)c1OC was read as hNpr1 antagonist -20%.
`O=C(Cn1cc(C(F)(F)F)ccc1=O)N1CCn2nc(CO)cc2C1` gave hNpr1 antagonist 2%.
Screening O=C(Cc1cn2ccsc2n1)NC1CC(c2nnc(CO)n2C2CC2)C1 (configuration not stated) returned hNpr1 antagonist 13%.
Cc1ccc(CN[C@@H]2CO[C@H](CNC(=O)CC(C)(C)C)[C@H]2O)cc1 was read as hNpr1 antagonist 3%[70.6 µM].
`Cn1cccc1C(=O)N1[C@@H]2CC[C@H]1CC(NC(=O)c1ccc(F)cc1)C2` (some centres not stated) gave hNpr1 antagonist 5%.
Screening Cc1noc(-c2ccc3c(c2)OCO3)c1C(=O)NCc1cccc(Cl)c1 returned hNpr1 antagonist 5%.
`O=C(NCc1ccccc1)C1CCCN(C2CCN(C(=O)c3ccco3)CC2)C1` (configuration not stated) gave hNpr1 antagonist -2%.
For N#Cc1ccc(C(=O)NCC(=O)N2CCCCCNC(=O)CC2c2ccccc2)cc1 (configuration not stated) the results were hNpr1 antagonist 4%.
COc1ccccc1NC(=O)CN1C(=O)NC2(CCCCC2)C1=O was read as hNpr1 antagonist -7%.
Screening Cc1n[nH]c(C)c1CNC(=O)C12CCCC=C1N(Cc1ccccc1)C(=O)CC2 (configuration not stated) returned hNpr1 antagonist -11%.
`CC[C@H]1CN(S(=O)(=O)c2ccc(OC)cc2)CC[C@H]1CC(=O)NCc1ccc(OC)cc1` gave hNpr1 antagonist 6%.

These rows are one share of the data; rates above refer to the full screens.
